Sfp inh = inhibitors of Bacillus subtilis Sfp phosphopantetheinyl transferase; Potency, µM, without a hit: max response, negative = inhibition, most hits filed as inhibitors; 310,000 tested, 3.5% active; Biochemical Sfp PPTase activity, qHTS; active = well fitted inhibition curve with a large enough effect; inconclusive = small, poorly fitted or top-dose-only effect, or another doubt; inactive = no such curve, though single readings can be large or run the other way;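 also: the enzyme is Sfp with the accession as filed and its product quenches rhodamine fluorescence; potency is read from the fitted curve at half-maximal effect; 0% = enzyme reaction without inhibitor and -100% = no enzyme wells; top concentration of the series not given in the record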
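Sfp 15 nM + cpd, 15 min RT; start w/ rhodamine-CoA 5 uM, BHQ-2-YbbR 12.5 uM (final); 50 mM Hepes pH 7.6, 10 mM MgCl2, 0.01% NP-40, 0.01% BSA; read 525/598 nm at 0 and 30 min.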
gsp ag = agonists of gsp mutant (McCune-Albright syndrome); gsp mutant cells, cAMP HTRF, 30 min; control for the full effect not named in the record; Potency, µM (top dose mostly 76.9 µM), for the others: top-dose activation (cAMP increase), actives largely listed as activators; 340,000 tested, 0.13% active; active = well fitted activation curve with a large enough effect; inconclusive = small, poorly fitted or top-dose-only effect, or another doubt; inactive = no such curve, though single readings can be large or run the other way; cell line not stated here;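 also: phosphodiesterase inhibitor Ro 20-1724 added with compounds to block cAMP breakdown; potency is read from the fitted curve at half-maximal effect; nearly all actives have a fitted effect of over 60% in size; about a fifth of the inactives were tested at one dose only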
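Cells in DMEM/10% FBS with G418 were pretreated with compounds in DMSO plus […] (300 uM stock) for 30 min at 37C. cAMP was measured by HTRF (cAMP-d2 plus anti-cAMP antibody-K) after 30 min at room temperature.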
gsp antagonist = antagonists of gsp mutant (McCune-Albright syndrome); gsp-mutant cells, cAMP HTRF, 30 min; control for the full effect not named in the record; Potency, µM (titrated, usually from 76.9 µM), for inactives: at the highest dose activity change, negative = inhibition, hits mostly inhibitors; 340,000 tested, 0.4% active; active = falling curve of any shape with a large fitted effect; inconclusive = falling curve, mostly with a smaller effect; inactive = flat or rising curve; cell line not stated here;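 also: intracellular cAMP measured with PDE inhibitor Ro 20-1724 present during compound exposure; potency is read from the fitted curve at half-maximal effect; % is scaled to controls: 0 for no effect and ±100 for the full control effect; nearly all actives have a fitted effect of over 65% in size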
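HTRF cAMP read-out (cAMP-d2 plus anti-cAMP antibody-K in lysis buffer, 30 min RT). Before lysis, cells are exposed to compounds with […] for 30 min at 37C in DPBS containing Ca/Mg, BSA and Tween 20.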
ClpP mod = qHTS Assay for Activators of ClpP; ATP-dependent Clp protease proteolytic subunit (Bacillus subtilis (strain 168)), P80244; Potency, µM (doses to about 57.5 µM), without a hit: at the top dose activity change, negative = active; AID 651965, 2013; purified B. subtilis ClpP, FRET peptide cleavage, 20 min; 340,000 tested, 1.9% active; active = well fitted falling curve with a large enough effect; inconclusive = small, poorly fitted or top-dose-only effect; inactive = no such curve, though single readings can be large or run the other way; also: potency is read from the fitted curve at half-maximal effect; the source files actives as falling curves though it sought activators and does not explain the sign; nearly all actives have a fitted effect of over 65% in size; many hits overshoot -100%
Target sequence (P80244 whole entry, looked up): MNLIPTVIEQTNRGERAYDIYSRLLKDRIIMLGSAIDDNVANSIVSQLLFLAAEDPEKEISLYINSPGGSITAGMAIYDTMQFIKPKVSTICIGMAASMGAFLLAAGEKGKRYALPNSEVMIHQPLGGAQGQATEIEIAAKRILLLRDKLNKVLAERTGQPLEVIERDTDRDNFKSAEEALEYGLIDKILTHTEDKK
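ClpP 10 microg/mL final, pH 8 Tris/KCl buffer with BSA, glycerol, Tween-20; compound pinned in; FRET-FV substrate; RT 20 min; Ex320/Em430; ΔFRET vs ADEP 5.8 microM, DMSO, no enzyme.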
TRPML1 inh = blocks the human TRPML1 channel. Q9GZU1. TRPML1-inducible cells, Ca2+ dye fluorescence, FDSS; active compounds read low; inhibition of EC80 agonist-evoked calcium signal. activity change, negative = inhibition, % (no concentration beside the values). 390,000 tested, 0.02% active. AID 624415; in the data active means activity change below about -50%; inconclusive means about -30% to -50%; inactive means above about -30%;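 also: stimulus is agonist 54-4 at its EC80 concentration; % is scaled to controls: 0 for no effect and ±100 for the full control effect; compound concentration not given in the record; the text of the record puts the active cut at -80%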
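TRPML1-DL cells, Tet-induced overnight (~16 h, 37 °C) at 1,500 cells/well, were loaded with Ca8 no-wash dye plus quencher for 45-90 min at room temperature. Compounds were pinned during FDSS kinetic reading; agonist 54-4 at EC80 (4 uM final) then added.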
TRPV1 PAM = potentiators of human vanilloid receptor 1 (TRPV1) | 320,000 tested, 0.02% active | Q8NER1 | TRPV1-expressing cells, Fluo-8 calcium influx, capsaicin EC20 potentiation; host cell line not named in the record; control for the full effect not named in the record | AID 540277 | potentiation, % at 8.33 µM; active means potentiation above 80%; inconclusive means 30% to 80%; inactive means below 30%; also: 0% is about no effect
Target sequence (Q8NER1 whole entry, looked up): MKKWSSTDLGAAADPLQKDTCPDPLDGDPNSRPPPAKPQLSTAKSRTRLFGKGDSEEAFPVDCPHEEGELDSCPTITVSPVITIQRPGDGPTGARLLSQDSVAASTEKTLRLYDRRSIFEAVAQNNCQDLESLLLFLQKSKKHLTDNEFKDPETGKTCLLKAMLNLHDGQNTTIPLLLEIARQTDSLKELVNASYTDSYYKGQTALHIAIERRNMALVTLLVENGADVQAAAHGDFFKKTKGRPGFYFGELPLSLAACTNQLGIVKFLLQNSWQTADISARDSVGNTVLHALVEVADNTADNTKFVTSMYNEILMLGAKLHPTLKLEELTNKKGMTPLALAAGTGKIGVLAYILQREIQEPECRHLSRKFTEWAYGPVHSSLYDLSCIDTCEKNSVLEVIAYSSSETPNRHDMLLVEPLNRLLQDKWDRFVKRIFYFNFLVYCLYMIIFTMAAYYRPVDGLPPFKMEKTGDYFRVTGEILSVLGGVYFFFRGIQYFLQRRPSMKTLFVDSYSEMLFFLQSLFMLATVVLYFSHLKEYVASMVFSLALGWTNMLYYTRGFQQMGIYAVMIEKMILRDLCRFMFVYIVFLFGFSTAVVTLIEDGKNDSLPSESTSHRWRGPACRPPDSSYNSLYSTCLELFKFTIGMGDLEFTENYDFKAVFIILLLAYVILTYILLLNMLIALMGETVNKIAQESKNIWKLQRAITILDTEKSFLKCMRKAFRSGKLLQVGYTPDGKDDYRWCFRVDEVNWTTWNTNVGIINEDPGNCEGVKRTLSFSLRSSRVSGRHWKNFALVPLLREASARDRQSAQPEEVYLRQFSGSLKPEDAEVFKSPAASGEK
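Fluo-8 calcium influx in TRPV1-expressing cells, kinetic read (ex 480/em 520 nm). Compound added and read 3 min for agonist activity, followed by capsaicin at EC20 final and 2 min further read for enhancement.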
Menin MLL FP FL = displaces fluorescein MLL peptide from human menin. Fluorescence polarization, fluorescein-MLL peptide displacement from menin. FP activity change, % at 61.4 µM. 290,000 tested, under 10 active; inconclusive = falling polarisation curve, or a change in total fluorescence; inactive = total fluorescence flat and polarisation flat or rising; no compound was filed as active; the % refers to the polarisation; negative = inhibition;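 also: % of control where 0% means no effect; inhibitors lower the polarisation; unlabelled MLL peptide was the positive control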
* = called active by the depositor; u = inconclusive; x = no result given; & = joins results of further samples; [ ] = remark or other dose.

SMILES	Sfp inh	gsp ag	gsp antagonist	ClpP mod	TRPML1 inh	TRPV1 PAM	Menin MLL FP FL
COc1ccccc1NC(=O)COC(=O)Cc1ccc(S(=O)(=O)N2CCCCC2)s1	12%	-17%[15.4 µM]	-13%	x	-9	13	2.6
O=C(Nc1cccc(O)c1)c1c(O)c2ccccc2[nH]c1=O	13%	-22%	u	-2.5%	-4	8	-1.3
COc1ccc(C(CNC(=O)COc2ccccc2OC)N2CCCCC2)cc1 (centres undefined)	6%	-25%	3%	0.3%	8	5	x
CC1(CCC#N)N=C(SCCC#N)N(c2ccccc2)C1=O (centres undefined)	6%	6%	8%	-2.3%	-6	-4	5.4
Cc1cc(=O)oc2cc(OCCSCCN3CCCCC3)ccc12	12%	6%	1%	3.7%	-4	26	1.7
CCOc1ccc(C(=O)NCC(C)NC(=O)c2ccc(OCC)cc2)cc1 (centres undefined)	-16%	3%	13%	-0.2%	-10	-9	-2.9
O=C(NNc1ccccc1)c1ccccc1	x	-51%[inhibitor]	6%	1.0%	5	x	x
O=C(NCCN1CCN(S(=O)(=O)c2ccc(F)cc2)CC1)C(=O)NCc1ccccc1	16%	-2%	-5%	x	-12	-13	-2.0
Cc1ccc(S(=O)(=O)N(C)c2ccc(OC(C)C(=O)N(C)c3ccccc3)cc2)cc1 (centres undefined)	x	-15%	-32%	1.0%	-7	8	x
O=C(c1ccccc1SCc1ccccc1)N1CCOCC1	20%	-1%[15.4 µM]	8%	1.4%	-14	-11	-2.2
Cc1cc(C)n2c(SCC(=O)Nc3ncc(C(F)(F)F)cc3Cl)nnc2n1	8%	4%	5%	-14%	6	-36	-5.2
CCOc1cccc(C(=O)Nc2ccccc2C(=O)N2CCOCC2)c1	20%	9%	3%	-2.1%	6	-3	x
N#Cc1cc2ccncc2c2ccccc12	x	u	x	3.7%	21	x	x
COc1ccc(C(=O)c2sc3nc(-c4ccccc4)ccc3c2N)cc1OC	-3%	u	-3%	0.7%	1	8	u
COc1ccc(C)cc1NC(=O)c1cc(S(=O)(=O)N2CCCCC2)ccc1N1CCOCC1	x	7%	-26%	u	13	-5	x
CCOC(=O)c1c(C)[nH]c(C)c1C(=O)CSc1nnc(N)s1	2%	3%	-4%	x	-9	5	0.5
O=C(COC(=O)CCC(=O)c1cccs1)NCc1ccc(Cl)cc1	-11%	-1%	0%	x	28	9	6.9
CC(C)C(OC(=O)c1ccco1)C(=O)NCc1ccccc1 (centres undefined)	14%	-7%	11%	-4.7%	-10	-2	0.7
O=C(O)CCNS(=O)(=O)c1ccc(Oc2ccccc2Cl)cc1	21%	14%	-11%	-0.1%	-2	8	-0.2
CC(=O)c1ccc(N2CCN(C(=O)C3CCN(S(=O)(=O)c4ccc5c(c4)CC(C)N5C(=O)C4CC4)CC3)CC2)cc1 (centres undefined)	0%	-26%	-18%	u	-12	u	x
Cc1c(C(=O)Nc2ccc3c4c(cccc24)CC3)cccc1[N+](=O)[O-]	-3%	27%	-4%	3.4%	9	-4	-0.8
COc1cc2cc(CN(CCO)C(=O)c3cccs3)c(=O)[nH]c2cc1OC	13%	24%	6%	32µM*	10	6	1.3
Cc1cc(=O)n(CCO)c(O)c1C#N	-18%	18%	-3%	u	-17	8	u
COC(=O)C1OC2(OC1C(=O)OC)c1ccccc1-c1ccccc12 (centres undefined)	-7%	25%	0%	-2.4%	10	7	7.6
COc1ccc(CC(=O)Nc2nn(C)c3nc4c(C)cccc4cc23)cc1	5%	3%[15.4 µM]	-14%	x	39	11	5.8
Cc1ccc(C2CC(c3cccs3)=NN2C(=O)CSC2=NCCS2)cc1 (centres undefined)	-12%	9%	-20%	3.7%	-6	0	4.5
CC1CN(C(=S)Nc2ccccc2)C(C)CN1C=O (centres undefined)	x	-28%	0%	x	4	x	x
c1ccc(Cc2nc3ccccc3[nH]2)cc1	14%	x	8%	-1.2%	-5	10	0.2
CCOc1ccccc1N1C(=O)c2cccnc2C1=O	4%	-34%[inhibitor]	11%	1.7%	4	u	-0.4
COc1ccc(C(CNC(=O)c2cccc(S(=O)(=O)Nc3ccccc3OC)c2)N2CCCC2)cc1 (centres undefined)	x	-46%[inhibitor]	1%	-5.4%	-1	-7	x
Cc1cc(=O)oc(C)c1C(=O)Nc1ccc(Cl)cn1	25%	27%	-7%	6.0%	-13	25	1.4
Cc1c(C(=O)N2CCN(c3ccccc3F)CC2)sc2nc(-c3ccccc3)cn12	1%	4%	-2%	4.8%	17	-9	-1.1
O=C1CN=C(Nc2ccc(Cl)cc2)N1c1ccccc1	3%	27%	-5%	-0.6%	-4	7	0.1
O=C(c1ccc(S(=O)(=O)N2CCCCC2)cc1)c1nnc(-c2ccc(Cl)cc2)o1	7%	4%	2%	-0.8%	30	4	-1.7
CC(C)(O)[C@H](O)COc1c2ccoc2cc2oc(=O)ccc12	26%	x	-3%	-3.0%	-5	2	4.5
Cc1ccccc1NS(=O)(=O)c1ccc(C(=O)N2CCCC(C(F)(F)F)C2)cc1 (centres undefined)	x	-40%[inhibitor]	2%	-3.4%	-12	-6	x
Cc1c(-n2c(=O)n(Cc3ccccc3)c(=O)c3[nH]cnc32)cccc1S(C)=O (centres undefined)	-9%	6%[15.4 µM]	-1%	0.3%	-1	-3	3.0
CCn1ncc(CNC(=O)C2(C)CC2(Cl)Cl)c1C (centres undefined)	17%	2%	-13%	-1.4%	7	14	4.1
Cc1c(C)n(C)c2ccc(C(=O)N3CCN(c4ccccc4)CC3)cc12	-9%	21%	-8%	-0.9%&-0.8%	4&10	-6	-0.6
Nc1nonc1C(=O)NCCNC(=O)c1cccc(Cl)c1	4%	14%[15.4 µM]	-1%	x	-7	17	-5.1
O=C(O)c1cccc(NC(=O)c2ccc(N3C(=O)c4ccc(C(=O)Nc5cccc(C(=O)O)c5)cc4C3=O)cc2)c1	33%[activator]	23%	3%	x	12	15	0.0
COC(=O)c1ccc(NC(=O)Cn2nnc(-c3cccs3)n2)cc1	-2%	-13%	-1%	0.3%	22	7	-0.4
Cc1cc2nc3c(=O)[nH]c(=S)[nH]c3nc2cc1NC(=O)C(F)(F)F	79µM*	-25%	-22%	0.1%	-23	0	u
S=C(Nc1ccccc1Cl)NC1CC2CCCC(C1)N2C1CC1 (centres undefined)	-3%	-110%[inhibitor]	5%	0.8%	-2	-9	-4.3
CC(Oc1ccc(Cl)cc1Cl)C(=O)NNC(=O)C(=O)N1CCCC1 (centres undefined)	6%	-1%[15.4 µM]	u	x	19	3	-5.0
O=C(O)c1csc(-c2ccc(Cl)cc2)n1	-9%	27%[15.4 µM]	-11%	x	33	0	-0.6
OCCCCNCc1ccc(OCc2ccccc2)cc1	15%	7%	24%	1.7%	13	-9	0.8
CC(C)=Cc1c(O)nc2ccccn2c1=O	9%	22%[15.4 µM]	17%	x	3	-6	2.3
c1ccc(-c2cc(-c3ccccc3)n3ncnc3n2)cc1	4%	-9%	-14%	x	-12	-25	-1.1
Cc1ccc(OCC(=O)OCC(=O)N2c3ccccc3CC2C)cc1C (centres undefined)	x	21%	5%	-1.3%	7	23	x
Going on with the list.
SMILES	Sfp inh	gsp ag	gsp antagonist	ClpP mod	TRPML1 inh	TRPV1 PAM	Menin MLL FP FL
CC(C)OC(=O)CN1CCN(c2ccc(Cl)cc2)CC1	9%	-40%[inhibitor]	0%	-2.9%	-24	1	-2.9
CCOC(=O)N1CCN(C(=O)CSCc2ccc(Cl)cc2)CC1	13%	2%	-11%[15.4 µM]	-1.0%	14	-10	2.5
CSc1c(C#N)c(N)nc2sc(C(=O)c3ccc(Cl)c(Cl)c3)c(N)c12	-11%	-4%[15.4 µM]	4%	x	-14	0	u
COc1ccc(CNC(=S)Nc2ccc3nc(N4CCOCC4)cc(C)c3c2)cc1	11%	13%	u	3.9%	56	-7	-1.9
COc1ccc(NC(=O)c2nc(S(=O)(=O)Cc3cccc(C)c3)ncc2Cl)c(OC)c1	4%	0%	u	0.4%	8	1	x
COc1cc(NC(=O)C2CCCCC2)c(OC)cc1NC(=O)CCC(=O)NCc1ccco1	11%	-33%[inhibitor]	-3%	1.1%	9	5	-0.8
O=C(OCC(=O)N1CCc2ccccc2C1)c1ccc(OC(F)F)cc1	x	-59%[inhibitor]	4%	-2.7%	15	-12	x
CCOc1ccc(NS(=O)(=O)c2ccc(C(=O)NCc3ccncc3)cc2)cc1	x	10%	3%	1.6%	13	8	x
O=C(NCC(=O)N1CCN(c2ccccc2O)CC1)c1ccccc1	3%	8%	5%	x	4	9	-0.1
CC(C)(C)NC(=S)NNC(=O)c1ccncc1	-9%	-2%[15.4 µM]	9%	-0.1%	-5	0	2.9
CCOC(=O)c1ccccc1N=Cc1c(O)c2ccccc2oc1=O	10%	0%	1%	-20%	x	15	0.5
O=C(c1ccc(Cl)cc1)N1CCC(O)(CSc2ccc(Cl)cc2)CC1	-6%	-16%	-1%	-2.4%	-6	x	0.0
Cc1ccc(NC(=O)CCSc2nnnn2-c2ccc3c(c2)OCO3)cc1C	14%	8%	-7%[15.4 µM]	-4.4%	-10	2	0.0
Cc1ccccc1NC(=O)CN1C(=O)NC2(CCc3ccccc32)C1=O (centres undefined)	x	10%	9%	0.2%	5	4	x
CCC(OC(=O)c1nsc(Cl)c1Cl)C(=O)NCc1cccs1 (centres undefined)	-1%	11%	-1%	-0.1%	-7	1	-0.5
Cc1nc(SC(C)C(=O)c2c(N)n(C)c(=O)n(C)c2=O)c2c(C)c(C)sc2n1 (centres undefined)	x	-51%[inhibitor]	-26%	-2.0%	-4	-29	x
CC(C)CC(NC(=O)C(CC(C)C)NC(=O)OC(C)(C)C)C(N)=O (centres undefined)	-3%	-3%	-2%	-0.5%	15	-1	-1.7

Bioassay records deposited in PubChem BioAssay by National Center for Advancing Translational Sciences (NCATS).
